ClpP mod = qHTS Assay for Activators of ClpP; purified B. subtilis ClpP, FRET peptide cleavage, 20 min; Potency, µM (top dose mostly 57.5 µM), for inactives: at the top dose activity change, negative = active; actives 1.9% (n = 340,000); AID 651965, 2013; active = well fitted falling curve with a large enough effect; inconclusive = small, poorly fitted or top-dose-only effect; inactive = no such curve, though single readings can be large or run the other way; further: potency means the concentration at half of the fitted maximal effect; the source files actives as falling curves though it sought activators and does not explain the sign; nearly all actives have a fitted effect of over 65% in size; many hits overshoot -100%
Target sequence (P80244 whole entry, looked up): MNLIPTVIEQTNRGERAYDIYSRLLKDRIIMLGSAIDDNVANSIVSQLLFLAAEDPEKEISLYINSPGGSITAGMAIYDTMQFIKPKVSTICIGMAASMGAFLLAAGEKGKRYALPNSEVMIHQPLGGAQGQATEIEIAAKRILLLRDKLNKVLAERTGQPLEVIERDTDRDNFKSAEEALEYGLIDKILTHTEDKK
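Purified B. subtilis ClpP, 10 microg/mL final in Tris/HCl pH8 with KCl, BSA, glycerol and Tween-20, cleaved an Abz/nitrotyrosine-quenched decapeptide. Fluorescence (ex 320, em 430) was read at 0 and 20 min at room temperature. Delta was normalized to 5.8 microM ADEP and DMSO/no-enzyme controls.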
gsp antagonist = antagonizes gsp, the McCune-Albright syndrome mutation; Potency, µM (highest dose often 76.9 µM), without a hit: at the highest dose activity change, negative = inhibition, usual class: inhibitors; actives 0.4% (n = 340,000); gsp-mutant cells, cAMP HTRF, 30 min; control for the full effect not named in the record; AID 624288; active = falling curve of any shape with a large fitted effect; inconclusive = falling curve, mostly with a smaller effect; inactive = flat or rising curve; cell line not stated here;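 further: intracellular cAMP measured with PDE inhibitor Ro 20-1724 present during compound exposure; potency means the concentration at half of the fitted maximal effect; on the % scale 0 is the no-effect control and ±100 the full control effect; nearly all actives have a fitted effect of over 65% in size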
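HTRF cAMP read-out (cAMP-d2 plus anti-cAMP antibody-K in lysis buffer, 30 min RT). Before lysis, cells are exposed to compounds with […] for 30 min at 37C in DPBS containing Ca/Mg, BSA and Tween 20.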
gsp ag = gsp mutant agonism; gsp mutant cells, cAMP HTRF, 30 min; control for the full effect not named in the record; Potency, µM (doses to about 76.9 µM), without a hit: top-dose activation (cAMP increase), hits mostly activators; actives 0.13% (n = 340,000); active = well fitted activation curve with a large enough effect; inconclusive = small, poorly fitted or top-dose-only effect, or another doubt; inactive = no such curve, though single readings can be large or run the other way; cell line not stated here;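 further: phosphodiesterase inhibitor Ro 20-1724 added with compounds to block cAMP breakdown; potency means the concentration at half of the fitted maximal effect; nearly all actives have a fitted effect of over 60% in size; about a fifth of the inactives were tested at one dose only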
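Cells stably selected in G418 were plated at 2000/well, grown 16-24 hr, then given compounds in DMSO with the PDE inhibitor […] (300 uM solution added) for 30 min at 37C; cAMP was read by HTRF.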
CtBP-E1A inh = inhibitors of CtBP/E1A interaction | AlphaScreen GST-E1A/His-CtBP binding, 1536-well; hits give low values; control for the full effect not named in the record | activity change, % (concentration not given with the values) | actives 0.49% (n = 340,000) | AID 651724; in the data active means activity change below about -65%; inconclusive means about -30% to -65%; inactive means above about -30%; further: on the % scale 0 is the no-effect control and ±100 the full control effect
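Steps: dispense buffer (Tris pH 8.0, NaCl 300 mM, TCEP 1 mM, BSA, Tween 20); add 5X protein mix (GST-E1A, His-CtBP, 125 nM each); pin 23 nL compound; 2 h at 37 °C, dark; add 5X beads (50 ug/mL); 1 h; read.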
Menin-MLL FL inh = inhibitors of human menin-MLL interaction, wild-type MLL peptide | 290,000 tested, under 10 active | FP activity change, % at 61.4 µM | Fluorescence polarization, fluorescein-MLL peptide displacement from menin; inconclusive = falling polarisation curve, or a change in total fluorescence; inactive = total fluorescence flat and polarisation flat or rising; no compound was filed as active; the % refers to the polarisation; negative = inhibition;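 further: % of control where 0% means no effect; inhibitors lower the polarisation; unlabelled MLL peptide was the positive control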
Sfp PPTase inh = Sfp phosphopantetheinyl transferase inhibition. Q9F4F7. Biochemical Sfp PPTase activity, qHTS. Potency, µM, inactives show max response, negative = inhibition, hits mostly inhibitors. actives 3.5% (n = 310,000); active means well fitted inhibition curve with a large enough effect; inconclusive means small, poorly fitted or top-dose-only effect, or another doubt; inactive means no such curve, though single readings can be large or run the other way;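 further: the enzyme is Sfp with the accession as filed and its product quenches rhodamine fluorescence; potency means the concentration at half of the fitted maximal effect; 0% = enzyme reaction without inhibitor and -100% = no enzyme wells; top concentration of the series not given in the record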
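Compounds were incubated with enzyme (final 15 nM) for 15 min at room temperature before substrate addition started the reaction. Fluorescence at 525 nm excitation, 598 nm emission was recorded immediately and after 30 minutes.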
TRPV1 PAM = enhances activation of the human vanilloid receptor TRPV1. TRPV1-expressing cells, Fluo-8 calcium influx, capsaicin EC20 potentiation; host cell line not named in the record; control for the full effect not named in the record. potentiation, % at 8.33 µM. actives 0.02% (n = 320,000). Q8NER1; active means potentiation above 80%; inconclusive means 30% to 80%; inactive means below 30%; further: 0% is about no effect
Target sequence (Q8NER1 whole entry, looked up): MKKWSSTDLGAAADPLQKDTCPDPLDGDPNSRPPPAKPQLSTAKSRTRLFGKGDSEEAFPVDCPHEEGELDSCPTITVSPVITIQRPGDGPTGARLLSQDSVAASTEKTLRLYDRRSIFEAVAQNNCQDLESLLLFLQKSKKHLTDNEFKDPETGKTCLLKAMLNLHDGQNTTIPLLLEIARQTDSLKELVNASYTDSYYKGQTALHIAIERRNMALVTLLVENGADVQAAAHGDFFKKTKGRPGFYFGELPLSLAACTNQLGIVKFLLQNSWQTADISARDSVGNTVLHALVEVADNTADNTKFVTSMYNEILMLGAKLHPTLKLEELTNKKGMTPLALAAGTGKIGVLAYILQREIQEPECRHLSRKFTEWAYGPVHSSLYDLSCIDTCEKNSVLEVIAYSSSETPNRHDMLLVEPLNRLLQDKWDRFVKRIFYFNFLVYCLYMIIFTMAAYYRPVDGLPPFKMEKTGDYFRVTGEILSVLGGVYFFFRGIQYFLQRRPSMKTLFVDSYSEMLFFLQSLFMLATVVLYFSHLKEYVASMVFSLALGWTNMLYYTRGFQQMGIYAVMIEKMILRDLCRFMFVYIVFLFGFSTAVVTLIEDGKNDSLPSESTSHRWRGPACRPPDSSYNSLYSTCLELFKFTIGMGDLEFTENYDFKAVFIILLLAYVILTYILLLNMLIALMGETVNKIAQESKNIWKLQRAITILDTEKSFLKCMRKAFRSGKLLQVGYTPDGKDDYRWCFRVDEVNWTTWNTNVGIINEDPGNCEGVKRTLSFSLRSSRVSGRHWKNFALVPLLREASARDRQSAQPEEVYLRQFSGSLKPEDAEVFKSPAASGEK
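Fluo-8 calcium influx in TRPV1-expressing cells, kinetic read (ex 480/em 520 nm). Compound added and read 3 min for agonist activity, followed by capsaicin at EC20 final and 2 min further read for enhancement.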
The depositor's hits bear a star; ? = inconclusive; / = not tested or not shown; & = joins results of further samples; [ ] = remark or other dose.

SMILES	ClpP mod	gsp antagonist	gsp ag	CtBP-E1A inh	Menin-MLL FL inh	Sfp PPTase inh	TRPV1 PAM
CC(C)(C)c1cc(NC(=O)CSc2nncs2)n(-c2ccccc2)n1	-3.0%	1%	-3%	6	1.4	12%	2
COC(=O)CSc1nnc(-c2ccoc2C)n1-c1ccc(C)cc1	-2.6%	?	-9%	-5	2.7	4%	-18
Cn1nc(C(=O)N2CCN(S(=O)(=O)c3ccc(Cl)cc3)CC2)c2ccccc2c1=O	0.6%	-12%	29%	6	/	/	10
CCOc1ccccc1/C=C(\NC(=O)c1ccccc1)C(=O)NCCC(=O)O	-2.9%	-4%	-2%[15.4 µM]	1	3.5	-16%	-2
O=C(N[C@@H](Cc1ccccc1)C(=O)N1CCC2(CC1)NCCc1[nH]cnc12)c1cccc(F)c1	/	-1%	2%	-1	/	-1%	8
CC(C)c1nnc(NC(=O)CCc2ccccc2)s1	-0.7%	13%	35%	2	3.8	-3%	23
CN(C(=O)c1ccc(S(=O)(=O)N2CCCC2)cc1)C1CCCCC1	1.7%	6%	-1%[15.4 µM]	5	0.2	-1%	-2
NNc1nc(-c2ccccc2)c2cc(Br)ccc2n1	-1.3%	0%	-62%[inhibitor]	-2	4.6	-28%	17
CC(=O)Nc1ccc(S(=O)(=O)Nc2cccc(N(C)S(C)(=O)=O)c2)cc1	-2.7%	7%	-16%	0	1.3	-2%	23
COC(=O)C(NC(C)=O)(Nc1nc2c(s1)CCCC2)C(F)(F)F (stereo not given)	-1.9%	4%	-1%	-2	1.8	-16%	-10
Nc1c(N(Cc2ccco2)C(=O)c2ccc(Cl)cc2)c(=O)[nH]c(=O)n1Cc1ccccc1	-0.5%	16%	-4%	-3	/	/	0
CCOC(=O)c1c(C)[nH]c(C(=O)N2CCC(C(=O)OCC)CC2)c1C	-0.4%	2%	-1%	-2	/	7%	?
O=C(O)c1ccc(COc2ccc(CO)cc2Cl)cc1	1.0%	-3%	-3%	10	4.2	13%	-4
Oc1c(C(Nc2cccc(C(F)(F)F)c2)c2cccnc2)ccc2cccnc12 (stereo not given)	-4.3%	-4%	7%	-86*	-1.7	?	-4
CC(C)(C)c1ccc(C(=O)Nc2ccc(N3CCOCC3)cc2)cc1	-10%	-7%	23%	4	5.5	-3%	-24

Part of the list above in order of length of the SMILES, rising.
SMILES	ClpP mod	gsp antagonist	gsp ag	CtBP-E1A inh	Menin-MLL FL inh	Sfp PPTase inh	TRPV1 PAM
CC(C)c1nnc(NC(=O)CCc2ccccc2)s1	-0.7%	13%	35%	2	3.8	-3%	23
O=C(O)c1ccc(COc2ccc(CO)cc2Cl)cc1	1.0%	-3%	-3%	10	4.2	13%	-4
CCOC(=O)c1c(C)[nH]c(C(=O)N2CCC(C(=O)OCC)CC2)c1C	-0.4%	2%	-1%	-2	/	7%	?

Next section.
SMILES	ClpP mod	gsp antagonist	gsp ag	CtBP-E1A inh	Menin-MLL FL inh	Sfp PPTase inh	TRPV1 PAM
Nc1nc(SCc2ccccc2)c2ncn(CCO)c2n1	-6.3%	10%	0%	-4	/	/	/
CCOC(=O)[C@H]1[C@H]2COc3cc(OC)ccc3[C@@H]2N2C(=O)CN(CCc3c[nH]c4ccccc34)C(=O)[C@@]12C	1.4%	-11%	-35%[inhibitor]	1	/	/	-45
Cc1cccn2c(=O)c3cc(S(=O)(=O)c4ccc(Br)cc4)c(=N)n(C4CCCC4)c3nc12	-5.7%	13%	21%	/	-8.3	-3%	-6
COC(=O)c1nnn(-c2nonc2N)c1CSc1nnc(N)s1	/	7%	-5%	-14	-4.1	12%	7
CCCCCC(=O)Nc1nc(C)c(-c2csc(Nc3ccccc3OC)n2)s1	-27%	4%	-9%	/	1.4	-12%	-5
COc1cc(Cl)c(C)cc1NC(=O)c1ccccc1NC(=O)CN1CCN(c2ccccn2)CC1	?	?	13%	/	/	/	/
Cc1c(NC(=O)CC(O)(C(F)(F)F)C(F)(F)F)c(=O)n(-c2ccccc2)n1C	0.4%	1%	-38%	3	4.9	7%	7
CCC1ON(C(C)C)C2c3nc4ccccc4n3CC12 (stereo not given)	-3.8%	11%	/	9	1.4	14%	?
Cc1ccc(CN2CCN(/N=C/c3cccs3)CC2)cc1	-1.1%	-4%	-16%	-19	4.3	-3%	-2
N#CCc1ccc(NC(=O)c2ccc(S(=O)(=O)N3CCOCC3)cc2)cc1	0.6%	19%	?	2	/	26%	-11
O=S(=O)(/N=C(\c1ccc(F)cc1)N1CCOCC1)c1ccccc1	-0.8%	/	-2%	5	/	/	/
COC(=O)c1ccc(NC(=O)Nc2ccc(C)cc2)cc1	-5.8%	1%	?	2	1.7	4%	-6
Cn1nccc1C(=O)N1CCN(c2cccc(Cl)c2)CC1	-0.5%	-1%	-11%	6	2.0	1%	-22
Cc1nc2c(-c3ccc(Cl)cc3)cnn2c(N)c1-c1ccc(F)cc1	4.1%	4%	10%	/	4.1	23%	7
O=C1NCCCc2nc(Oc3ccccc3)sc21	-1.3%	16%	6%	1	5.1	19%	-8
Cc1ccc2[nH]c3c(c2c1)CN(C(=O)CN(C)CC1OCCO1)CC3	-4.2%	8%	-12%	1	-17	22%	-8
Cc1ccc(C(=O)NNC(=O)c2cccc(S(=O)(=O)N3CCOCC3)c2)cc1	0.1%	4%	23%	5	/	/	/
Cc1c(OCC(=O)NCC2CCC(C(=O)O)CC2)ccc2c3c(c(=O)oc12)CCC3 (stereo not given)	4.7%	-8%	/	-21	-1.4	20%	-4
O=C(COC(=O)CCc1c[nH]c2ccccc12)Nc1cccc(Cl)c1	2.0%	/	-5%	-7	/	/	/
Cc1ccc(S(=O)(=O)NCCn2c(C)cc3ccccc32)cc1	/	/	/	/	-24	11%	4
COc1ccc(-c2c3c(nc4sc5c(Cl)nc(C)nc5c24)CCC3)cc1	-0.2%	-5%	-25%	-2	3.9	-2%	1
COc1ccc2c(C)cc(N3CCN(c4ccc(F)cc4)CC3)nc2c1	28µM*	-1%	7%	-14	7.6	?	3
CCn1cc(CNCc2cn[nH]c2-c2cc3ccccc3o2)cn1	/	1%	-212%[inhibitor]	2	0.5	9%	11
Cc1cc(=O)oc2cc(OCC(=O)OCC(=O)Nc3ccc(C(N)=O)cc3)ccc12	/	6%	7%[15.4 µM]	-1	-0.5	16%	3
COc1cc(C(=O)NCC(=O)N2CCN(S(=O)(=O)c3cc(C)ccc3C)CC2)cc(OC)c1OC	-0.6%	-17%	8%	3	/	8%	-4
CCC(C)NCCCOc1ccc(Cl)cc1C(C)(C)C (stereo not given)	-9.7%	14%	1%	-4	3.2	-46%	17
COc1ccc(-c2c(C)nn3c(C(F)(F)F)cc(C)nc23)cc1	1.7%	/	-4%	-5	/	/	/
COc1cccc(N(CC(=O)NCCSCc2ccc(Cl)cc2)S(C)(=O)=O)c1	0.4%	-7%	-19%[15.4 µM]	-9	-2.7	3%	-13
CC(=O)Nc1ccc(OCCOc2ccc(NC(C)=O)cc2)cc1	1.2%	11%	9%	/	-1.8	6%	5
CCc1ccc(OCC(=O)NC2CC(C)(C)NC(C)(C)C2)cc1	/	6%	21%	-4	?	-5%	-2
CN(Cc1cccs1)C(=O)CSc1nc(N)cc(N)n1	-2.8%	11%	7%[15.4 µM]	-3	-0.2	8%	1
CC(=O)c1cccc(N(C(=O)c2ccccn2)C(C(=O)NC2CCCCC2)c2cccs2)c1 (stereo not given)	1.0%	-13%	3%	3	0.5	-8%	13
CCNC(=S)N/N=C(\C)c1ccc2c(c1)OCCO2	-7.6%	2%	-17%	-2	6.7	26%	-3
CN1C[C@@H]2C(c3ccc(C(F)(F)F)cc3)C3(c4ccccc4)CC2(C3)[C@H]1c1ccccc1 (stereo not given in full)	-2.9%	6%	/	-3	3.1&7.5	2%&-7%	10
Cc1ccccc1-n1c(=S)[nH]c2nc3c(cc2c1=O)CCCC3	/	-13%	4%[15.4 µM]	3	0.1	22%	3
Cc1ccc(S(=O)(=O)N2CCCC(C(=O)NCCC3=CCCCC3)C2)cc1 (stereo not given)	-0.1%	-17%	-7%	0	1.9	17%	-16
CC(C)(C)OC(=O)NCc1ccc(CNC(=O)c2[nH]cnc2C(=O)N[C@@H](Cc2ccccc2)C(=O)OC(C)(C)C)cc1	-0.9%	4%	/	-4	?	17%	25
CCN(CC)C(=O)C1=C(C)N(CCCN2CCCC2=O)C(=O)C(CC(=O)NCCN2CCOCC2)C1 (stereo not given)	1.1%	/	-33%[inhibitor]	0	/	/	/
Nc1nc2nccc(-c3ccco3)n2n1	/	4%	16%	-3	1.6	13%	5
CC(=O)OC1(C(C)=O)CCC2C3CC(C(F)(F)F)C4=CC(=O)CCC4(C)C3CCC21C (stereo not given)	/	-18%	16%	-3	/	/	/
COc1ccc(CCNC(=O)NC23CC4CC(CC(C4)C2)C3)cc1OC	0.6%	-2%	-3%	0	-0.6	0%	-16
Cc1nc(SCC(=O)Nc2nccs2)c(C#N)c(C)c1C	4.7%	6%	?	/	/	/	-1
CC(C)C1N=C(c2ccc3c(c2)OCO3)CC(c2ccccc2O)N1 (stereo not given)	-1.4%	-4%	8%	-3	2.8	?	-17
O=C1OCCC1=COCCCCCCOC=C1CCOC1=O	-5.5%	/	5%	5	/	/	/
COC(=O)c1cc(NC(=O)c2ccc(-c3ccccc3)cc2)ccc1Cl	2.0%	-6%	-8%[15.4 µM]	4	7.3	6%	9
O=C(NCCc1ccccc1)c1noc2c1CCc1ccccc1-2	-0.8%	2%	-55%[inhibitor]	8	3.2	0%	-15
CCOc1ccc2oc(C(=O)NNC(=O)c3ccccc3O)c(C)c2c1	/	-2%	-7%[15.4 µM]	-1	/	/	-6
O=C(N/C=C/c1ccccc1)c1ccccc1	-6.2%	-13%	/	2	/	/	-10
Cc1ccccc1C1C(=O)c2ccccc2C1=O	2.7%	-3%	0%	/	5.7	-2%	12
CCN(CC)S(=O)(=O)c1ccc(N2CC(C(=O)N3Cc4ccccc4CC3C(N)=O)CC2=O)cc1 (stereo not given)	-1.0%	-7%	?	/	/	/	/
CCOC(=O)N/N=C/c1ccccc1F	-0.8%	12%	-36%[inhibitor]	-7	0.0	21%	-2
COc1ccccc1NC(=O)CCCC(=O)OC(C)C(=O)c1ccccc1 (stereo not given)	1.5%	-28%	-3%[15.4 µM]	-11	1.3	22%	?

High-throughput results (PubChem)
